# Sa helicase inh = inhibitors of S. aureus replicative helicase, primary screen, biochemical, fluorescence unwinding readout. replicative DNA helicase (DnaC/DnaB), Staphylococcus aureus. purified S. aureus helicase, fluorescence unwinding assay; about half of the hits fall short of the stated cut. inhibition, %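 (tested at about 80 µM)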. actives 0.05% (n = 120,000). AID 485395, 2010;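 active means both duplicates at 50% or more, or one of them with a favoured structure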;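 further: 0% = mean of negative control wells and 100% = mean of positive control wells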
# MgrA-DNA mod = S. aureus MgrA activity modulators, primary screen, biochemical, S. aureus Newman, fluorescence polarization | MgrA-DNA binding | actives 0.13% (n = 84,000) | inhibition, %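 (about 10 µg/mL by stock and volumes)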 | AID 602314, 2012;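 active means above 50% in either of two replicates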;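 further: 0% = protein plus DNA without compound and 100% = DNA alone without protein; higher means less MgrA bound to DNA so lower polarization; one replicate is shown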
# * hit, by the source's call; x = no result given; & = joins results of further samples.
MgrA-DNA mod	Sa helicase inh	compound
x	15.0	O=c1nc(-c2cccs2)cc(C(F)(F)F)[nH]1
x	5.0	CN1CCc2c(n(CC(O)Cn3nnc4ccccc43)c3ccccc23)C1=O (stereo not drawn)
x	6.0	c1ccc(-n2c(Sc3ncnc4c3oc3ccccc34)nnc2C2COc3ccccc3O2)cc1 (stereo not drawn)
x	-7.0	Cc1noc(C)c1CSc1nc2ccccc2nc1NS(=O)(=O)c1ccc(Cl)cc1
x	24.0	CCN1C(=O)c2ccccc2S(=O)(=O)c2ccc(C(=O)NCC(OC)OC)cc21
-0.6	-6.0	O=C(Nc1nc2ccc(Cl)cc2s1)c1ccc(Br)s1
x	-2.0	COc1ccc(OCC(O)CN2CCc3ccccc3C2)cc1 (stereo not drawn)
x	9.0	COc1ccccc1NC(=O)c1cc(Sc2nncn2C)nc2ccccc12
2.5	5.0	COc1ccc2cc(-c3nc(-c4cccs4)cs3)c(=O)oc2c1
x	-27.0	CCOc1ccccc1N=Nc1c(C)[nH]n(C(N)=S)c1=O
x	5.0	C=CCNC(=O)COc1ccc(-n2cnnn2)cc1
x	6.0	O=C(/C=C/c1ccccc1)Nn1cnc2c(cnn2-c2ccccc2)c1=O
x	4.0	CC1(C)CC2CC(C)(CN2C(=O)C23CCC(C)(C(=O)O2)C3(C)C)C1 (stereo not drawn)
x	-2.0	Cc1cccc(NS(=O)(=O)c2cccc(C(=O)N3CCN(C)CC3)c2)c1
x	11.0	O=c1oc2ccccc2cc1-c1csc(Nc2ccccc2)n1
0.0	13.0	Cc1ccccc1C(=O)Nc1cccc(-c2cn3ccccc3n2)c1
1.1	-16.0	Cc1noc(/C=C/N(C)C)c1S(=O)(=O)N(C)CCc1ccc(Cl)cc1
x	12.0	C[C@H](NS(=O)(=O)c1ccccc1F)C(=O)OCc1ccccc1F
0.1	x	c1cc(-c2nc(-c3ccc4c(c3)OCCCO4)cs2)on1
-0.9	x	Cc1ccc(/C=C(\C#N)c2nc(-c3cc4cc(Br)ccc4oc3=O)cs2)cc1
-0.1	-24.0	O=C(Nc1ccccc1I)c1cc[n+]([O-])cc1
x	-12.0	Cc1ccc(SCC(=O)NN)cc1
x	22.0	O=C(O)CNCC(O)Cn1c2ccccc2c2ccccc21 (stereo not drawn)
x	-1.0	CCc1nc2ccccc2n1CC(=O)N(C(C)CC)C1CCS(=O)(=O)C1 (stereo not drawn)
x	2.0	O=C1CC(c2ccc(F)cc2)CC2=C1C=Nc1ccccc1N2 (stereo not drawn)
x	-10.0	c1ccc(CCNc2nnnn2-c2ccccc2)cc1
x	-3.0	Cc1noc(C)c1CSc1nnc2ccccn12
x	2.0	Cc1nn(C)c(C)c1/C=C/C(=O)Nc1nc2c(s1)CCCC2
x	7.0	CN1c2ccccc2-c2nc3ccccc3n2C1c1ccccn1 (stereo not drawn)
-2.4	x	CN(C)CC1CCc2c(c3ccccc3n2C)C1=O (stereo not drawn)
x	0.0	CNC(=S)NCc1ccc2c(c1)cc(C)n2C
x	10.0	O=C(NCC1CCCO1)C1CCN(c2nnc(-n3cccc3)s2)CC1 (stereo not drawn)
x	2.0	NS(=O)(=O)c1ccc(NC(=O)CN2CCCC2c2ccc3c(c2)OCCO3)cc1 (stereo not drawn)
x	22.0&5.0	NC(N)=N/N=C/c1ccccc1
x	15.0	C#CCOc1ccccc1C(N)=O
x	-6.0	CC1(C)Cc2cccc(OCC(=O)OCc3nnc(-c4ccccc4)o3)c2O1
-1.8	x	COC(=O)C1=C(C)NC2=C(C(=O)CC(c3ccc(OC)cc3)C2)C1c1cc(OC)c(OC)c(OC)c1 (stereo not drawn)
x	-8.0	O=C(NCc1ccncc1)c1ccc(CSc2ncn[nH]2)cc1
5.3	14.0	CCc1ccccc1NC(=O)C=C(C)C
-0.3	x	CN1C(=O)CC(c2ccsc2)Sc2ccccc21 (stereo not drawn)
x	0.0	Nc1c(C(=O)Nc2ccc(Cl)cc2)oc2ccccc12
3.0	9.0	c1csc(-c2ncc3ccccn23)c1
-5.2	2.0	Cc1ccc(S(=O)(=O)c2c(O)c3ccc(C(=O)N4CCOCC4)cc3[nH]c2=O)cc1
-0.8	10.0	O=C(O)CNC(=O)c1ccc(S(=O)(=O)N2CCCC2)cc1
1.6	x	CC(=O)n1c(O)c(N=Nc2ccc([N+](=O)[O-])cc2[N+](=O)[O-])c2cc(Br)ccc21
0.4	5.0	CCN1c2ccccc2-c2nc3ccccc3n2C1c1ccccc1 (stereo not drawn)
-0.3	x	O=C(c1nn2c(c1Cl)NC(c1ccccc1)CC2C(F)(F)F)N1CCN(Cc2ccccc2)CC1 (stereo not drawn)
x	-24.0	CCOC(=O)C1C(=O)N(C(=O)c2ccc(OC)cc2)CC1c1ccccc1 (stereo not drawn)
2.0	23.0	COc1ccc(NC(=O)c2cc3nc(C(F)F)cc(C(F)F)n3n2)cc1OC
-0.5	x	COc1ccc(Cc2nnc(SCC3CC3)n2-c2ccc(F)cc2)cc1OC

# Some of these compounds in order of molecular weight, lowest first:
MgrA-DNA mod	Sa helicase inh	compound
0.4	5.0	CCN1c2ccccc2-c2nc3ccccc3n2C1c1ccccc1 (stereo not drawn)
x	-24.0	CCOC(=O)C1C(=O)N(C(=O)c2ccc(OC)cc2)CC1c1ccccc1 (stereo not drawn)
-0.3	x	O=C(c1nn2c(c1Cl)NC(c1ccccc1)CC2C(F)(F)F)N1CCN(Cc2ccccc2)CC1 (stereo not drawn)

# Continued.
MgrA-DNA mod	Sa helicase inh	compound
x	-17.0	CC(=O)Nc1sc2c(c1C(c1cccs1)N1CCOCC1)CCCC2 (stereo not drawn)
x	-20.0	Cc1ccc(C)c(N2CCN(CCCNC(=O)c3cn[nH]c3C3CCNCC3)CC2)c1
-0.3	x	COc1ccccc1/C=C1\SC(=S)N(C(Cc2ccccc2)C(=O)O)C1=O (stereo not drawn)
x	-17.0	Cc1ccc2oc(=O)c3cc(C(=O)NCc4ccc(C)o4)sc3c2c1
x	-3.0	O=C(COC(=O)c1ccc(F)c(S(=O)(=O)N2CCCCC2)c1)NC1CC1
x	40.0	CCOC(=O)N1CCN(S(=O)(=O)c2ccc(C)c(C)c2)CC1
-6.6	6.0	O=C(COc1ccc2ccccc2c1Br)NC1CCCCC1
x	18.0	O=C1CSc2ccc(C(=O)OCCCn3c(=O)[nH]c4ccccc43)cc2N1
2.5	x	Cc1ccc(OC(=O)c2ccno2)cc1
1.6	-8.0	C=CCN1C(=O)C(=O)/C(=C(\O)c2ccccc2)C1c1ccccc1 (stereo not drawn)

# Reformatted tab-delimited: part of the list above.
SMILES	MgrA-DNA mod	Sa helicase inh
O=C(COC(=O)c1ccc(F)c(S(=O)(=O)N2CCCCC2)c1)NC1CC1	x	-3.0
CCOC(=O)N1CCN(S(=O)(=O)c2ccc(C)c(C)c2)CC1	x	40.0

# Going on with the list.
MgrA-DNA mod	Sa helicase inh	compound
0.3	8.0	O=C1CCC(=O)N1c1c(F)c(F)nc(N2CCCCC2)c1F
x	8.0	CCSc1nnc2ccc(-c3ccncc3)nn12
x	14.0	CCC(=O)Nc1nc(-c2ccc3c(c2)OCO3)cs1
-2.4	0.0	COc1ccc(CCNC(=O)c2ccc(/C=C3\Oc4ccccc4NC3=O)cc2)cc1OC
x	20.0	O=C(NCC1CCCCC1)NC1CCCN(c2cnccn2)C1 (stereo not drawn)
x	9.0	CC1=C(C)CS(=O)N(C(=O)c2ccccc2)C1 (stereo not drawn)
-2.2	x	O=C1Nc2ccccc2S/C1=C/c1ccc(Cl)cc1
x	-6.0	CC(Nc1nnnn1-c1ccccc1)c1ccccc1 (stereo not drawn)
3.7	12.0	CC(C)c1ccc(NC(=O)C(NC(=O)Cc2cccs2)c2ccccc2)cc1 (stereo not drawn)
2.0	x	CCN(CC)C(=O)Oc1nnc(SC(C)C)n1-c1ccc(Cl)cc1
2.6	x	CCOC(=O)CC1Sc2ccccc2NC1=O (stereo not drawn)
x	-16.0	Cc1ccc(NC(=O)CSc2nnc3n2CCCCC3)cc1
4.2	-3.0	CC(C)c1cccc(C(C)C)c1NC(=O)CSc1ncccn1
13.8	x	CN(C)c1ccc(CC2C(=O)Nc3ccccc32)cc1 (stereo not drawn)
-2.6	-3.0	CC(=C1C(=O)NC(=O)NC1=O)c1ccc(N)cc1
0.7	0.0	C[n+]1ccn(CC(=O)c2ccccc2)c1
-4.2	3.0	Cc1ccc(S(=O)(=O)NC(=O)SC#N)cc1
x	-15.0	CC(C)OC(=O)c1cc(C(=O)c2cc(F)ccc2O)coc1=N
x	-14.0	CCNC(=O)C(C)NC1CCN(C(C)C)CC1 (stereo not drawn)
0.3	2.0	CC1(C)C=C(C(=O)N2CCOCC2)C(C)(C)N1
-0.5	x	Cc1ccccc1C(=O)On1c(-c2ccccc2F)nc2ccccc2c1=O
-4.5	x	CCCc1c(C(=O)Nc2cc(C(C)(C)C)on2)cnn1-c1ccccc1
x	-6.0	O=S(=O)(Nn1cc(-c2ccccc2)[nH]c1=S)c1ccc2c(c1)OCCO2
0.6	22.0	CC(=O)Nn1c(=O)[nH]c2ccccc2c1=O
-1.6	9.0	O=C(NC1CCCCC1)c1cccc(-n2c(=S)[nH]c3cc(Cl)ccc3c2=O)c1
-1.0	x	COC(=O)c1cc([N+](=O)[O-])ccc1N1CCC(n2cccc2)CC1
-3.0	x	O=C(O)c1ncoc1-c1cccc(C(F)(F)F)c1
x	14.0	CCN(CC(=O)NC1CCS(=O)(=O)C1)c1nc(-c2cccnc2)nc2sc3c(c12)CCCC3 (stereo not drawn)
-1.5	x	Cc1cnnc2ccc3nonc3c12
-4.9	7.0	CC1=C(c2ccccc2)[N+](=O)C2(CCCC2)N1[O-]
x	0.0	CCOC(=O)c1c(-c2ccccc2)oc2ccc(OC(=O)Cc3n[nH]c(=O)c4ccccc34)cc12
4.7	x	C[C@@]12C(=O)OC(=O)[C@]1(C)C1CCC2O1
x	11.0	COc1cc(-c2nc(C=Nc3cccc(C(=O)O)c3)c(O)o2)cc(OC)c1OC
x	-5.0	O=C(CSc1ccc(-c2ccco2)nn1)c1ccccc1
x	5.0	CCC(=O)N1CCc2cc(Br)cc(S(=O)(=O)NC(c3ccccc3)c3ccccc3)c21
-0.7	4.0	O=C(Cc1ccccc1)Oc1ccc(C2SCCS2)cc1
-0.9	10.0	CCC1=Nc2cc(C(=O)N3CCc4ccccc4C3)ccc2Sc2ccccc21
-1.3	-1.0	CCC(=O)Nc1ccccc1C(=O)NC(C)(C)C
-1.8	10.0	O=C(Nc1ccc(Cl)cc1)Nc1cccc(-c2cn3cccnc3n2)c1
-2.5	x	O=c1c2ccccc2[nH]c(=S)n1Cc1cccnc1

# The last 5 compounds of the part before open the next one.
MgrA-DNA mod	Sa helicase inh	compound
-0.7	4.0	O=C(Cc1ccccc1)Oc1ccc(C2SCCS2)cc1
-0.9	10.0	CCC1=Nc2cc(C(=O)N3CCc4ccccc4C3)ccc2Sc2ccccc21
-1.3	-1.0	CCC(=O)Nc1ccccc1C(=O)NC(C)(C)C
-1.8	10.0	O=C(Nc1ccc(Cl)cc1)Nc1cccc(-c2cn3cccnc3n2)c1
-2.5	x	O=c1c2ccccc2[nH]c(=S)n1Cc1cccnc1
0.2	14.0	Cn1cc2ccc(N)cc2n1
-1.1	1.0	COC(=O)C1C(=O)C2=C(CC1C)Nc1ccccc1NC2c1cc(F)ccc1F (stereo not drawn)
2.8	9.0	CCc1ccc(NC(=O)c2sc3[nH]c(=O)c(C(=O)O)cc3c2N)cc1
x	3.0	Cc1cc(NC(=O)c2sc(Nc3ccccc3)c(C#N)c2N)no1
-0.4	x	COc1cc(C2NC(=O)N(C)C(C)=C2C(=O)OC2CCCCCC2)cc(Br)c1O (stereo not drawn)
x	4.0	O=C(NC(O)C(=O)c1ccccc1)c1cccs1 (stereo not drawn)
-1.0	19.0	Cc1ccc(Sc2c(C)[nH]n(C(C)(C)C)c2=O)cc1
-3.4	2.0	CN(C)S(=O)(=O)c1ccc(C#N)cc1
x	-7.0	CCOC(=O)c1cc2c(=O)n3ccccc3nc2n(C(C)C)c1=NC(=O)c1c(-c2ccccc2Cl)noc1C
1.7	-5.0	Nc1cccc(NC(=O)c2cccc(S(=O)(=O)Nc3cccc(N)c3)c2)c1
x	6.0	CCCC1CC(C)(c2csc(Cc3ccc(OCC)cc3)n2)OC1=O (stereo not drawn)
3.0	x	CCOc1ccc(N=C2C(=O)N(c3ccccc3)c3ccccc32)cc1
x	13.0	CC[n+]1c(C)cc(C)n1-c1ccccc1
-0.3	x	COC(=O)c1[nH]c2ccccc2c1C(=O)OC
0.2	-2.0	CCn1c(C(NC(=O)c2ccc(C)cc2)C(C)C)n[nH]c1=S (stereo not drawn)
1.3	-7.0	Cn1c(=O)n(Cc2ccco2)c(=N)c2c3c(sc21)CCCC3
0.8	-21.0	CN(C)c1ccc(NC(=O)COc2ccc(C#N)cc2)cc1
x	-9.0	CC(Sc1nncn1C(C)C)C(=O)c1c[nH]c2ccccc12 (stereo not drawn)
-20.1	16.0	O=c1c(Cl)c(N2CCCCC2)cnn1C12CC3CC(CC(C3)C1)C2
1.4	14.0	Cc1nn(CCc2nc(C(C)(C)C)cs2)c2[nH]c(=O)cc(C(F)(F)F)c12

# The last 3 entries of the part above are carried over, then new ones follow:
MgrA-DNA mod	Sa helicase inh	compound
x	-9.0	CC(Sc1nncn1C(C)C)C(=O)c1c[nH]c2ccccc12 (stereo not drawn)
-20.1	16.0	O=c1c(Cl)c(N2CCCCC2)cnn1C12CC3CC(CC(C3)C1)C2
1.4	14.0	Cc1nn(CCc2nc(C(C)(C)C)cs2)c2[nH]c(=O)cc(C(F)(F)F)c12
x	35.0	CC(C)OC(=O)c1cc2ccc(O)cc2oc1=O
2.1	8.0	NS(=O)(=O)c1ccc(CCn2ccn(CC(=O)NCCC3=CCCCC3)c(=O)c2=O)cc1
x	-9.0	O=C(OCC(=O)N1CCCC1=O)c1n[nH]c2ccccc12
x	31.0	CCc1ccc(NC(=O)Cc2ccc(NC3=NC4CS(=O)(=O)CC4S3)cc2)cc1 (stereo not drawn)
x	19.0	Cc1cccc(C)c1OCC(=O)N=Nc1c(O)n(CN2CCN(C)CC2)c2ccc(Br)cc12

# Source: PubChem BioAssay

# The list is partial; rates above refer to the full screens.
